Source: PubChem (Johns Hopkins Ion Channel Center)
KCNQ2 enhance: KCNQ2 (rat) channel potentiation | O88943 | CHO-K1 KCNQ2, FluxOR thallium flux fluorescence; active compounds read high | B-score at 10 µM | 0.54% of 310,000 active;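 active means fluorescence ratio B-score at least 3 SD of library B-scores, with initial fluorescence B-score within 3 SD, cut at about 5.3 in these data; same plate scores as AID 2156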;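 further: B-score of peak minus minimum over baseline fluorescence ratio after K+ and Tl+ stimulus; positive B-score means potentiation of KCNQ2 with more thallium influx and brighter signal; only the inactives scoring about 0 or higher are listed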
Target sequence (O88943 whole entry, looked up): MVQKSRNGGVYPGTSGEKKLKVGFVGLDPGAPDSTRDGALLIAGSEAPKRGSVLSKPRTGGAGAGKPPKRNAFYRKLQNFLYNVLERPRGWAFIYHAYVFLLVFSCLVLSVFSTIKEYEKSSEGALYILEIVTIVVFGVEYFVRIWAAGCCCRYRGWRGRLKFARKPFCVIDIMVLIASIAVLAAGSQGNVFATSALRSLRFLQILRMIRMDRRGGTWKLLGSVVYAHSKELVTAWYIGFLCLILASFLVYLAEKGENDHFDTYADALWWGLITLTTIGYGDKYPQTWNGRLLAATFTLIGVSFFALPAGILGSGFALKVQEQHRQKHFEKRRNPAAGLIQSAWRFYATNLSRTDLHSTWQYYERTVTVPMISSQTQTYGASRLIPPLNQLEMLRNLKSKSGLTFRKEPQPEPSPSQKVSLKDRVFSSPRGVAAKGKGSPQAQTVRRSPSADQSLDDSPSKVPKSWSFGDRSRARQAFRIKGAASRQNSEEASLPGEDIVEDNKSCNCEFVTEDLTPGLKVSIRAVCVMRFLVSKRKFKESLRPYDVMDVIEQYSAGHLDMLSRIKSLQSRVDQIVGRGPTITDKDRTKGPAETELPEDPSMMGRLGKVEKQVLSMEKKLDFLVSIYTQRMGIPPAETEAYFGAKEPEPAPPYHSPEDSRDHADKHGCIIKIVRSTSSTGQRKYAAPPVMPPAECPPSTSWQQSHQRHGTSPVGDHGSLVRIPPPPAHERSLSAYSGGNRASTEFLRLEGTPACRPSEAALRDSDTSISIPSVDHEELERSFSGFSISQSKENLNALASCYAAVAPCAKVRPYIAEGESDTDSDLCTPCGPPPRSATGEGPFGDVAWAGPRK
KCNQ2 enhance baseline: also measured in KCNQ2 enhance; calls as there; B-score; compound at 10 µM; measured here: initial fluorescence intensity artifact check;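 brightness before thallium and not channel activity; 0 = typical well and far values either way flag optical interference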
* marks the source's active call; other numbers are inactive results. These rows are one share of the data, so the mix of outcomes need not match the whole.

SMILES	KCNQ2 enhance	KCNQ2 enhance baseline
COC(C[C@@H](O)C[C@@H](O)[C@H](C)OCc1ccccc1)OC	0.08	1.49
CCOc1ccccc1OCC(=O)Nc1ccc(S(=O)(=O)N(C)C)cc1	0.03	-0.07
C=CCN1C(=O)/C(=C/c2ccc(OC(C)=O)c(OCC)c2[N+](=O)[O-])SC1=S	0.26	1.49
CCOc1cc(/C=N/O)cc(Cl)c1OC	1.21	0.07
C=C(C)C1CC=C(C)/C(=N\NC(=O)CCc2ccccc2)C1 (stereo not given)	1.56	0.51
COCCNC(=O)CCCN1C(=O)c2ccccc2Sc2ncccc21	0.13	1.55
CCOc1cc(CN2CCN(c3ccc(C(C)=O)cc3)CC2)ccc1OC	0.37	1.26
Cc1cccc(NC(=O)CCNS(=O)(=O)c2cccc3nsnc23)c1C	1.96	-0.51
C=CCn1c(SCC(=O)Nc2nnc(CC)s2)nnc1-c1ccco1	0.03	1.94
Cc1ccc(NC(=O)c2cccc3c2C(=O)N(C2CCCCC2)C3)c(C)c1	0.07	-0.22
O=C(O)Cn1c(C(F)(F)F)nc2ccccc21	1.15	-1.06
Cc1cccc(NC(=O)Nc2ccc3c(c2)CCC3)c1	5.14	0.01
O=C(c1ccc(Cl)cc1)N1CCc2c([nH]c3ccccc23)C1C(F)(F)F (stereo not given)	7.95*	-1.34*
CCN1CCN(c2cc(C)c3cc(NC(=O)c4ccc(OC)c(OC)c4)ccc3n2)CC1	0.15	-1.42
CC(C(=O)Nc1ccccn1)N1C(=O)c2ccccc2S1(=O)=O (stereo not given)	0.04	-0.06
CC1CCN(c2nc3ccc(C(=O)NCCCN4CCCCC4)cc3s2)CC1	0.84	-2.8
CCOc1ccc(N2C(=O)CC(Sc3nc(-c4cccs4)cc(C(F)(F)F)c3C#N)C2=O)cc1 (stereo not given)	0.07	0
O=C(CN(C(=O)CCC(=O)Nc1ccccn1)c1cccc(F)c1)NCc1ccc(F)cc1	0.69	0.04
CC(C)c1ccc(NC(=O)CCNS(=O)(=O)c2cccc3nsnc23)cc1	0.06	2.28
O=C(NNC(=O)C1CC=CCC1)c1ccccc1Br (stereo not given)	0.5	0.8
O=S1(=O)NC(C2CC2c2ccccc2)CCO1 (stereo not given)	1.72	-0.27
CCOc1ccc2ccccc2c1C(=O)Nc1cc(=O)n(C)c(=O)n1C	0.74	-0.08
CC1(C)CC2CC(C)(CN2S(=O)(=O)c2ccc(C(=O)Nc3cc(S(=O)(=O)N4CCOCC4)ccc3Cl)cc2)C1 (stereo not given)	0.48	0.1
Cn1c(N/N=C/c2ccccc2)nc2sc3c(c2c1=O)CCC3	1.53	-1.67
Cc1nc(-c2ccccc2)nc(Cl)c1Cl	1.23	-0.09

Four records drawn at random from those above:
SMILES	KCNQ2 enhance	KCNQ2 enhance baseline
COCCNC(=O)CCCN1C(=O)c2ccccc2Sc2ncccc21	0.13	1.55
O=S1(=O)NC(C2CC2c2ccccc2)CCO1 (stereo not given)	1.72	-0.27
O=C(O)Cn1c(C(F)(F)F)nc2ccccc21	1.15	-1.06
Cc1ccc(NC(=O)c2cccc3c2C(=O)N(C2CCCCC2)C3)c(C)c1	0.07	-0.22

New compounds follow:
SMILES	KCNQ2 enhance	KCNQ2 enhance baseline
O=C(c1ccco1)N1CCN(c2ncnc3c2nnn3Cc2ccccc2Cl)CC1	0.31	-1.48
O=c1[nH]c(/C(Cl)=C/c2cccc(F)c2)nc2cc(C(F)(F)F)ccc12	1.07	-1.23
Cc1nc([N+](=O)[O-])cn1CC(=O)c1ccc(Cl)cc1	0.18	-1.33
CC(C)c1ccc(N(C(=O)c2snc(C(N)=O)c2N)C(C(=O)NC2CCCC2)c2ccncc2)cc1 (stereo not given)	1.18	0
O=C(Nc1ccccc1)c1ccccc1O	0.79	-0.41
Cc1cc(C)cc(NC(=O)NCc2ccccn2)c1	0.07	-0.09
COCCNC(=O)c1ccc(C)cc1C	0.15	0.02
CCOc1ccccc1OCCCC(=O)Nc1nc2ccccc2[nH]1	0.18	-0.51
Cc1cccc(OCC(=O)N2CCN(C(=O)c3ccc([N+](=O)[O-])cc3)CC2)c1	1.48	0.34
CC1(C)CC(NC(=O)c2ccc3c(c2)OCO3)CC(C)(C)N1	0.64	0.25
COC(=O)c1cn(-c2ccccc2)nc1-c1ccccc1	0.29	-1.38
CS(=O)(=O)c1[nH]nc(-c2cccc(Cl)c2)c1C#N	0.01	-2.38
O=C(COc1ccc2c(C(F)(F)F)cc(=O)oc2c1)Nc1ccc(N2CCOCC2)cc1	0.63	0.03
CCCc1cc(=O)[nH]c(SCC(=O)c2cc(C)n(-c3c(C)n(C)n(-c4ccccc4)c3=O)c2C)n1	0.69	-0.31
COCCNC(=S)N(CCc1c(C)[nH]c2ccccc12)Cc1ccco1	0.7	-0.04
O=c1c(Cc2c(F)cccc2Cl)c(O)ccn1Cc1ccc2c(c1)OCO2	0.14	-0.16
Cc1cc(NC(=O)c2ccc([N+](=O)[O-])o2)ccc1NC(=O)c1ccco1	0.29	-0.59
COCCn1c(SCC(=O)N2CCCc3ccccc32)nnc1-c1ccoc1C	0.83	-1.46
CN(CC(=O)Nc1ccncc1)S(=O)(=O)c1ccccc1	0.17	-0.08
O=C(CCc1nc2ccccc2c(=O)[nH]1)N1CCN(S(=O)(=O)c2ccccc2Br)CC1	1.6	-0.95
CC1CCN(C(=O)COC(=O)CNC(=O)C23CC4CC(CC(C4)C2)C3)CC1	0.14	-2.81
O=S(=O)(c1cccc2nsnc12)N1CCOCC1	0.93	1.17
COc1cc(OC)cc(C(=O)N[C@H](C(=O)NCc2ccco2)C(C)C)c1	1.31	0.86
O=C(Nc1nccs1)c1ccc(N2CCOCC2)c([N+](=O)[O-])c1	0.03	-2.55
CCn1cc(/C=C(\NC(=O)c2ccc(OC)c(OC)c2)C(=O)N2CCN(C)CC2)c2ccccc21	0.02	1.3

Structures from the list above containing a furan ring, fused or not:
SMILES	KCNQ2 enhance	KCNQ2 enhance baseline
C=CCn1c(SCC(=O)Nc2nnc(CC)s2)nnc1-c1ccco1	0.03	1.94
O=C(c1ccco1)N1CCN(c2ncnc3c2nnn3Cc2ccccc2Cl)CC1	0.31	-1.48
COCCNC(=S)N(CCc1c(C)[nH]c2ccccc12)Cc1ccco1	0.7	-0.04
Cc1cc(NC(=O)c2ccc([N+](=O)[O-])o2)ccc1NC(=O)c1ccco1	0.29	-0.59
COCCn1c(SCC(=O)N2CCCc3ccccc32)nnc1-c1ccoc1C	0.83	-1.46
COc1cc(OC)cc(C(=O)N[C@H](C(=O)NCc2ccco2)C(C)C)c1	1.31	0.86

Additional compounds.
SMILES	KCNQ2 enhance	KCNQ2 enhance baseline
CSc1ccccc1NC(=O)c1ccc(Br)o1	2.14	-1.02
CCc1cccc2c1NC(=O)C2(O)CC(=O)c1cccs1 (stereo not given)	0.3	0.67
COc1cccc(NC(=O)c2oc3ccccc3c2NC(=O)C2CC2)c1	0.2	-0.09
O=c1ccc(-c2ccc(S(=O)(=O)Nc3ccccc3)o2)n[nH]1	0.6	0.6
CCC(=O)Nc1c2c(nn1-c1ccc(C)cc1C)CSC2	1.25	1.28
O=C(NC1(c2ccccc2)CC1)C1CCC(=O)N(Cc2ccc(Cl)cc2)C1 (stereo not given)	0.04	-2.04
O=c1cc(CO)oc(C(Nc2ccccn2)c2cccc(F)c2)c1O (stereo not given)	1.58	1.01
Cc1cccc(-n2c(Cc3cc(=O)[nH]c(=O)[nH]3)nnc2SCC(=O)N2CCc3ccccc32)c1	0.3	-0.84
Cc1ccc(S(=O)(=O)N2CCC(C(=O)OCC(=O)N(CC(C)C)C3CCS(=O)(=O)C3)CC2)cc1C (stereo not given)	0.66	-0.42
O=C(Nc1ccc2c(c1)OCO2)C1CCN(C(=O)c2cccs2)CC1	1.67	1.78
CC(=O)N1CCc2cc(S(=O)(=O)NCCC(=O)N3CCc4ccccc4C3)ccc21	0.67	0.83
COc1ccc(C(=O)Nc2ccc3c(c2)nc2n3CCSC2)cc1	0.08	1.96
Cc1occc1C(=O)NNC(=O)c1cccc(F)c1	1.89	0.03
COc1ccc(C(=O)NC2CC2)cc1OC1CCN(Cc2cnn(C)c2)CC1	0.72	-0.2
O=C(CNCCO)N1N=C(c2cccs2)CC1c1cccs1 (stereo not given)	0.09	0.55
O=C(Nc1nnc(S(=O)(=O)N2CCOCC2)s1)c1cccc(F)c1	1.72	-0.68
CN(C)C(=O)c1cccn1-c1ncc(C(F)(F)F)cc1Cl	1.11	-0.87
Nc1ccc(Sc2cc(Cl)nc(N)n2)cc1	3.25	0.29
C/C(CC(=O)N1CCN(C=O)CC1)=N\NC(=O)c1ccc(Br)cc1	1.74	-0.18
Cc1cc(Cl)ccc1NC(=O)CN1C(=O)NC2(CCCC2)C1=O	2.79	-0.49
CCN=C1S/C(=C\c2ccc(-c3cccc(C(=O)O)c3)o2)C(=O)N1CC	0.6	0.21
Cc1cccc(C)c1NC(=O)C(c1ccccc1)N1CCOCC1 (stereo not given)	0.59	0.58
Cc1nnc2ccc(N3CCCC3)nn12	0.53	0.25
COc1ccccc1CNS(=O)(=O)N(C)C	0.25	-0.58
CCOC(=O)/C(C(N)=NC)=C(\O)c1ccccc1	0.6	-0.53
Later entries.
SMILES	KCNQ2 enhance	KCNQ2 enhance baseline
COC(=O)C1=C(C)N(c2ccccc2)/C(=C/c2cccs2)C1=O	0.5	2.77
Cc1cc(C(=O)NNC(=O)c2sccc2C)c(C)o1	0.54	0.05
COc1ccccc1C(=O)Nc1nnc(SCC(=O)NCc2ccco2)s1	1.2	0.3
COc1ccc(CSc2nc(C)[nH]c2[N+](=O)[O-])cc1[N+](=O)[O-]	0.6	-1.47
Cc1ccc(NC(=S)N2CCN(S(=O)(=O)c3ccc(C)cc3)CC2)cc1	0.07	0.04
Cc1ccc2cc(/C=N/NC(=O)CN3CCOCC3)c(Cl)nc2c1	0.58	-0.84
COc1ccc(CNC(=O)CN(C(=O)c2snc(C(N)=O)c2N)c2cccc(F)c2)cc1	0.61	0.21
O=c1[nH]c(C2CCN(S(=O)(=O)c3ccccc3C(F)(F)F)CC2)nc2c1nnn2Cc1ccccc1	0.05	-0.25
O=C(NCC(=O)N1CCN(c2ccccc2O)CC1)c1ccc2ccccc2c1	1.76	-0.23
O=C(NC(=S)Nc1cccc(O)c1)c1cncc(Br)c1	1.55	-0.44
COc1cc(NC(=O)c2nccn2C)cc(C(=O)Nc2cccc(C(F)(F)F)c2)c1	1.05	-1.85
Cc1ccc2c(c1)N(CC(=O)NCCCN1CCCCC1)C(=O)CO2	0.02	-0.46
CC(c1ccccc1)N1CC(C(=O)N2CCN(c3ccccc3)CC2)CC1=O (stereo not given)	0.44	0.65
C=CCOc1ccc(C2C(C#N)=C(N)N(N(C)C)C3=C2C(=O)CCC3)cc1 (stereo not given)	0.24	-1.04
O=C(N/N=C/C=C\c1ccccc1[N+](=O)[O-])c1cccs1	0.95	1.01
O=[N+]([O-])c1cc(Cl)cc(C2=NCCN2)c1	0.29	-0.32
CC1=CC(C)(C)N(C(=O)CSc2ncn[nH]2)c2ccccc21	0.13	1.13
CC1(c2ccc(C#N)cc2)NC(=O)N(CC(=O)Nc2cc(S(=O)(=O)N3CCOCC3)ccc2Cl)C1=O (stereo not given)	0.88	-3.59
CC(=O)N(Cc1c(C#N)c2ccccc2n1C)c1ccccc1	0.1	0.55
CCSC1=NCCN1C(=O)c1ccc(S(=O)(=O)N(C)C)cc1	0.66	0.01
Cc1ccc(NC(=O)NNS(=O)(=O)c2ccc(Br)cc2)cc1	1.13	0.2
O=C(CSc1nccc(=O)[nH]1)NC1CCCc2ccccc21 (stereo not given)	0.61	-0.34
COC(=O)[C@@H](NC(=O)c1ccccc1)[C@@H](C)O	0.18	2.02
Cn1c(=O)n(C)c2cc(NS(=O)(=O)c3ccccc3[N+](=O)[O-])ccc21	0.32	0.44
Cc1ccc(C(=O)CSc2nnc(-c3ccccc3N)n2C)cc1	0.44	-0.68
The listing continues.
SMILES	KCNQ2 enhance	KCNQ2 enhance baseline
OCCC1CN(Cc2cccn2-c2nccs2)CCN1CCc1ccccc1 (stereo not given)	0.13	-0.44
Cc1ccc(-n2c(C)cc(C)c(C#N)c2=O)cc1	0.67	-0.76
O=C(CS(=O)(=O)c1c[nH]c2ccccc12)N1CCCCC1	0.11	-2.16
O=S(=O)(c1ccc(Br)cc1)c1nc(-c2ccco2)oc1NCC1CCCO1 (stereo not given)	0.36	1.26
COc1ccc(C2CC(=O)CC(=O)C2n2cncn2)cc1 (stereo not given)	1.33	-0.51
CC(C)OC(=O)NS(=O)(=O)c1cccc([N+](=O)[O-])c1	0.31	-0.2
Cc1ccc2nsnc2c1S(=O)(=O)N1CCOCC1	0.51	0.71
CC(C)CCNC(=O)C(c1ccncc1)N(C(=O)Cn1nnc(-c2ccc(F)cc2)n1)c1ccccc1F (stereo not given)	0.08	1.81
COc1ccc(/C=C/C(=O)NCCN=C2NS(=O)(=O)c3ccccc32)cc1	1.2	0.14
COc1ccc(-c2ccc(Nc3ccc(C(=O)N4CCOCC4)cc3)nn2)cc1OC	1.69	-0.81
CCOC(=O)c1c(-c2ccc(Cl)cc2)c(C#N)c(=O)n(N)c1N	0.26	0.15
Cc1cc(C)c(S(=O)(=O)c2ccccc2)c(N2CCOCC2)n1	0.02	0.82
CCn1c(C(=O)N2CCC(C(=O)NCc3cccs3)CC2)cc2sccc21	0.02	-0.42
CCS(=O)(=O)c1nc(S(=O)(=O)c2ccc(C)cc2)c(N2CCC(O)CC2)s1	0.96	-0.45
CC(NC(=O)C1CC1)C(c1cccs1)N1CCOCC1 (stereo not given)	1.62	0.06
CCOC(=O)c1c(C)nc(C)c(C(=O)OCC)c1-c1ccc(O)c(OC)c1	0.72	-2.35
CC1CN(S(=O)(=O)c2ccc(C(=O)Nc3nccs3)cc2)CC(C)O1 (stereo not given)	0.43	-0.01
CCC(=O)NC(=S)Nc1ccccc1C(F)(F)F	0.03	-0.84
